# Screening data from PubChem BioAssay.
# Mtb growth = Mycobacterium tuberculosis H37Rv growth inhibition, cell based, confirmatory dose response (AID 1949); most inactive calls were filed without a number and no value below 0 was filed; inhibition, % at 10 µg/mL; hits with a dose series show IC50 in µg/mL; 100,000 compounds, 1.6% hits;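 active = confirmed in a dose series; inconclusive = about 50% or more but not retested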;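 note: bacteria grown 7 days with compound before Alamar blue readout; 0% = untreated bacteria and 100% = reference antibiotic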
# Active calls of the source: *; i = inactive; ? = inconclusive. The list is partial (hit frequency here may not be typical).
molecule | Mtb growth
CCn1c(C)c(C(C)=O)c(N2CCN(c3ccc(F)cc3)CC2)nc1=S | i
CCc1ccc(NC(=O)COc2ccccc2-c2ccccc2)cc1 | i
C=CCn1c(=O)c2c(C)c(C)sc2n2c(Nc3ccccc3)nnc12 | i
Cc1ccccc1NC(=S)Nc1ccc(Oc2ccccc2)cc1 | 45%
O=c1cc(C(F)(F)C(F)(F)OC(F)(F)F)oc2ccccc12 | 4%
CC(C)(C)NC(=O)Cn1cc(C(=O)c2ccco2)c2ccccc21 | i
CS(=O)(=O)N(Cc1ccc(C(=O)NCCC2=CCCCC2)cc1)c1ccccc1 | i
CCN(CC)c1ccc(NC(=O)CC23CC4CC(CC(C4)C2)C3)c(C)c1 | i
CCOC(=O)c1c(NC(=S)N2CCN(c3ccccn3)CC2)sc2c1CCCCC2 | 5%
COc1cccc(N(CC(=O)Nc2cc([N+](=O)[O-])ccc2C)S(=O)(=O)c2ccccc2)c1 | 1%
CC(C)(C)c1ccc(C(=O)N2CCC(C(=O)N3CCCCCC3)CC2)cc1 | 3%
Cc1ccc(NC(=O)c2ccc(CSc3nnnn3-c3ccccc3)cc2)cc1 | i
COc1ccc(NC(=S)N2CCC(O)CC2)c(OC)c1 | i
CCCCSc1nc2ccc(Nc3nc(N4CCOCC4)nc(N4CCOCC4)n3)cc2s1 | 1%
Cc1nn(S(=O)(=O)N(C)C)c(C)c1CN1C(=O)c2ccccc2C1=O | i
Cc1cc2nc(C)c(Cc3ccccc3)c(=O)n2[nH]1 | 1%
CCOc1cc(C(=O)Nc2ccccc2Cl)ccc1OCc1ccccc1 | i
CCC(=O)N1CCN(c2ccc(Cl)cc2NC(=O)COc2ccc(Br)cc2)CC1 | i
CCCN(CCC)S(=O)(=O)c1ccc(NC(=O)c2ccccc2I)cc1 | i
O=C(NCC1CCCO1)c1ccc(F)cc1F (stereo not given) | i
Cc1cc2ncn(C3CC(=O)N(c4ccc(Cl)cc4)C3=O)c2cc1C (stereo not given) | i
C=CCNC1CC(=O)N(c2ccc(OCCC)cc2)C1=O (stereo not given) | 46%
Cc1ccc(C)c(N(Cc2cccc(Cl)c2)S(C)(=O)=O)c1 | i
COC(=O)c1[nH]c2c(c1C)C(=O)CC(c1cccc(OC)c1)C2 (stereo not given) | i
CC(=O)N(C)Cc1nc2ccccc2n1C | i

# By substructure, the entries above containing a Cl atom
molecule | Mtb growth
CCOc1cc(C(=O)Nc2ccccc2Cl)ccc1OCc1ccccc1 | i
CCC(=O)N1CCN(c2ccc(Cl)cc2NC(=O)COc2ccc(Br)cc2)CC1 | i
Cc1cc2ncn(C3CC(=O)N(c4ccc(Cl)cc4)C3=O)c2cc1C (stereo not given) | i
Cc1ccc(C)c(N(Cc2cccc(Cl)c2)S(C)(=O)=O)c1 | i

# 3 records drawn at random from those above, as already listed:
molecule | Mtb growth
O=c1cc(C(F)(F)C(F)(F)OC(F)(F)F)oc2ccccc12 | 4%
Cc1ccc(C)c(N(Cc2cccc(Cl)c2)S(C)(=O)=O)c1 | i
C=CCn1c(=O)c2c(C)c(C)sc2n2c(Nc3ccccc3)nnc12 | i

# Next section:
molecule | Mtb growth
Cc1cc(CSc2ccccc2)ccc1NC(=O)Cc1ccccc1[N+](=O)[O-] | i
O=C(Nc1sc2c(c1C(=O)NCCc1ccccc1)CCCC2)c1ccccc1F | i
CC1=C(C(=O)N2CCOCC2)C(c2cccc(Br)c2)C2=C(CCCC2=O)N1 (stereo not given) | i
CC(=O)Nc1ccc(C(=O)Nc2nnc(Cc3ccccc3)s2)cc1 | i
Nc1cccc(Nc2ncnc3ccccc23)c1 | i
CCOc1ccccc1C(=O)Nc1nc(-c2ccc(F)cc2F)cs1 | i
N#Cc1c(N2CCN(C(=O)Nc3ccc(Cl)c(Cl)c3)CC2)nc(-c2ccco2)c2c1CCCC2 | 0%
COCCNC(=S)NNC(=O)COc1ccc(C(C)(C)c2ccccc2)cc1 | i
CCc1ccc(NC(=O)CN(c2cccc(Cl)c2Cl)S(=O)(=O)c2ccccc2)cc1 | 4%
COc1ccc([N+](=O)[O-])cc1N(CC(O)CN(Cc1ccccc1)Cc1ccccc1)S(=O)(=O)c1ccccc1 (stereo not given) | 7%
CC(C)c1ccc(OCC(=O)Nc2ccc(S(=O)(=O)NCCc3ccccc3)cc2)cc1 | i
O=C(O)CC1(CC(=O)Nc2cccnc2)CCCC1 | i
COc1ccc(CNC(=S)NC2CCCCC2)cc1OC | 0%
COc1cc(NC(=O)c2cc3ccccc3o2)ccc1NC(=O)c1ccccc1Cl | 2.3µg/mL*
CCOC(=O)N1CCN(c2nc(-c3ccc(F)cc3)cs2)CC1 | i
Cc1cccc(Cn2c(NCCCO)nc3c2c(=O)n(C)c(=O)n3C)c1 | i
CCOc1ccc(OCC)c(S(=O)(=O)NCc2ccco2)c1 | i
Cc1ccc(C2CC(=O)NC(SCCC(C)C)=C2C#N)cc1 (stereo not given) | i
Fc1ccccc1N1CCN(C(=S)Nc2ccc(Cl)cc2Cl)CC1 | i
CCCNC(=O)C12CCC(C)(C(=O)C1)C2(C)C (stereo not given) | 2%
CC(C)(C)NS(=O)(=O)c1ccc([N+](=O)[O-])cc1 | i
O=C(Nc1cccc(C(F)(F)F)c1)N1CCN(C/C=C/c2ccccc2)CC1 | 44%
CCCC12CN(C(=O)c3ccc(OC)cc3)CC(C)(CN(C(=O)c3ccc(OC)cc3)C1)C2=O | 6%
COc1ccc(CNc2nccs2)cc1OC | i
O=C(COc1ccc([N+](=O)[O-])cc1)Nc1ccc(CN2CCOCC2)cc1 | 3%
COc1ccc(C(=O)OCc2ccc(S(=O)(=O)c3ccccc3)cc2)cc1 | i
O=C1c2ccccc2C(=O)c2c1nc1n2CCC1 | i
O=C(CN1C(=O)c2ccccc2C1=O)OC1CCCCC1 | i
O=C(Nc1ccccc1C(F)(F)F)C1CC2c3ccccc3C1c1ccccc12 (stereo not given) | 5%
Cc1cc(S(=O)(=O)N2c3ccccc3CC2C)c(C)cc1Br (stereo not given) | i
CSc1nc(C)cc(-n2ccc(=O)[nH]c2=O)n1 | 2%
O=C(CCc1ccccc1)Nc1nc2ccc([N+](=O)[O-])cc2s1 | i
COc1cc(OC)c(S(=O)(=O)N(C)c2ccccc2)cc1S(=O)(=O)N(C)c1ccccc1 | i
CCOC(=O)C1=C(C)NC(=O)NC1c1ccc(OC(C)C)c(OC)c1 (stereo not given) | i
Cc1cccc(C)c1N1CCN(C(=O)N2CCCCC2)CC1 | i
Cc1ccc(N2CC(C(=O)Nc3ccc(Cl)cn3)CC2=O)cc1 (stereo not given) | i
N#Cc1ccc(OCCOCCn2cncn2)cc1 | i
Cc1onc(-c2ccccc2)c1C(=O)Nc1sc2c(c1C#N)CCC(C)C2 (stereo not given) | 0%
COC(=O)c1cccc(-n2c(CCC(=O)O)ccc2-c2cccs2)c1 | i
CNc1cc(N2CCCC2)ccc1[N+](=O)[O-] | i
COc1ccc(S(=O)(=O)N(C)CC(=O)NCCc2ccc(OC)c(OC)c2)cc1Cl | i
CCOC(=O)c1cnc2c(C#N)cnn2c1C | i
COc1ccc(CC(=O)Nc2cc(C)ccc2O)cc1 | i
COc1cc2c(cc1NC(=O)c1cc(Br)ccc1Cl)oc1ccccc12 | i
CCn1c(Cc2ccccc2)nnc1SCCC(=O)O | i
CCOC(=O)c1c(NC(=O)Cn2cnc3scc(-c4ccccc4)c3c2=O)sc(C)c1C | i
O=C(Nc1ccccc1N1CCOCC1)c1ccc(OCc2ccccc2)cc1 | i
CC(Oc1ccc(Cl)cc1Cl)c1nc(-c2ccc(Br)cc2)no1 (stereo not given) | 5%
O=C(c1ccc(CN2CCc3ccccc3C2)cc1)N1CCc2ccccc2C1 | i
COc1ccc(S(=O)(=O)N2CCC(C(=O)NCc3ccc(Cl)cc3)CC2)cc1 | i

# Continuation:
molecule | Mtb growth
Cc1ccccc1C1CC(=O)Nc2cc3c(cc21)OCCO3 (stereo not given) | i
CCCS(=O)(=O)N1CCN(C(=O)COc2ccccc2)CC1 | i
COc1ccc(Cl)cc1-c1n[nH]c(=S)o1 | i
O=C(COc1ccc(Cl)cc1Cl)N=Nc1c(O)[nH]c2c(Br)cc(Br)cc12 | 34%
COc1ccccc1NS(=O)(=O)c1ccc(Oc2ccccc2Cl)cc1 | i
CCn1c(SCC(=O)Nc2ccc(Cl)c(Cl)c2)nnc1C(NC(=O)c1cccc(C)c1)C(C)C (stereo not given) | 42%
COc1ccc(C(=O)c2c(C)n(C)c(=O)n(C)c2=O)cc1 | i
O=C(COc1ccc(Cl)cc1Cl)n1cccn1 | i
CCCNS(=O)(=O)c1ccc(CCC(=O)N2CCC(C(=O)OCC)CC2)cc1 | i
CC(NC(=O)c1ccccc1NC(=O)C(C)(C)C)C(=O)Nc1ccccc1 (stereo not given) | 0%
CCOC(=O)N1CCc2[nH]c3ccc(Cl)cc3c2C1 | 5%
Cn1nc(CC(=O)NC2CCCCCCCCCCC2)c2ccccc2c1=O | i
COc1ccc(N2CCN(C(=O)c3ccccc3OC)CC2)cc1 | 1%
CCc1cccc2c(C#N)cn(CC(=O)N3CCOCC3)c12 | i
COc1cccc(OC)c1C(=O)NC(=S)Nc1ccccc1N1CCOCC1 | i
Cc1nn(C)cc1C(C)NC(=S)Nc1ccc(S(N)(=O)=O)cc1 (stereo not given) | i
COc1ccc(/C=C(\C#N)S(=O)(=O)c2ccccc2)cc1COc1cccc2cccnc12 | i
CCOc1ccc(Br)cc1S(=O)(=O)NC1CC(C)(C)NC(C)(C)C1 | i
Cc1cc(C)nc(NC2=NC3CCCCC3N2C(=O)Nc2ccc(Cl)c(Cl)c2)n1 (stereo not given) | i
O=[N+]([O-])c1ccc2c(c1)nc1n2CCN(CC2CCCO2)C1 (stereo not given) | i
COc1ccc(C(=O)Nc2ccc(CN3CCCCC3)cc2)cc1 | i
COCCCNC(=O)N1c2ccccc2Sc2ccccc21 | 5%
COc1ccc(-c2c3c(=O)n(C)c(=O)n(C)c3c3c(COc4ccccc4)nc4ccccc4n23)cc1 | 1%
O=C(O)c1ccc(COc2c(F)c(F)cc(F)c2F)o1 | 4%
O=C(Nc1ccccn1)c1cc(-c2cccnc2)nc2ccc(Br)cc12 | 3%
O=C(NC(=S)Nc1cccc(Cl)c1Cl)c1cccc([N+](=O)[O-])c1 | 6%
Cc1cc(I)cc(C)c1NC(=O)COc1ccc(Cl)cc1 | i
C/C=C/c1ccc(OCCCN2CCN(CC)CC2)c(OC)c1 | i
CCN1C(=O)C(CC(=O)Nc2ccc(Cl)cc2)N(Cc2ccc(F)cc2)C1=S (stereo not given) | 6%
O=C(OCc1nnc(-c2ccccc2)o1)c1cc(=O)[nH]c2ccccc12 | i
Cc1cc(C(=O)NCc2ccccc2F)no1 | 2%
Cc1ccc(Sc2c(C)n[nH]c2C)cc1 | 11%
CC1=C(C(=O)OCCCc2ccccc2)C(c2cccs2)NC(=O)N1 (stereo not given) | 3%
CC(C)(C)c1ccc(OCC(=O)NC2CCS(=O)(=O)C2)cc1 (stereo not given) | i
CCN(CC)C(=S)NC(=O)c1cccc([N+](=O)[O-])c1 | ?
COc1ccc(NC(=S)Nc2ccccc2C)cc1OC | i
CCOc1ccc(Nc2nc(C)cc(C)c2C#N)cc1 | i
Cc1cc(Sc2ncnc(N)c2[N+](=O)[O-])ncn1 | 1.7µg/mL*
CC1CCN(S(=O)(=O)c2ccc3[nH]c(=O)[nH]c3c2)CC1 | i
CCN(CC)c1ccc(NC(=O)OC)cc1 | 0%
O=C(O)C1CCN(c2ccc(C(F)(F)F)cn2)CC1 | i
S=C(Nc1ccc(Nc2ccccc2)cc1)N1CCN(c2ncccn2)CC1 | i
CCOc1ccccc1NC(=O)C12CCC(C)(C(=O)C1)C2(C)C (stereo not given) | i
O=C(CN(Cc1c(F)cccc1Cl)S(=O)(=O)c1ccc(Cl)cc1)Nc1ccccc1F | 3%
O=C(CSc1nnc(-c2ccccc2)n1-c1ccc(F)cc1)NCc1ccccc1 | i
CC(C)c1ccc(N(CC(=O)O)S(=O)(=O)c2ccccc2)cc1 | i
O=C(c1cccs1)N1CCN(C2CCCC2)CC1 | i
Cc1nc2ccc(Nc3ccncc3)cc2s1 | i
CC(C)(C#CCCCCC#CC(C)(C)N1CCCC1)N1CCCC1 | i
COc1ccc(Cc2nc3ccccc3n2CC(=O)N(c2ccccc2)C(C)C)cc1 | i

# The final 4 entries of the part before come first, to join the parts.
molecule | Mtb growth
O=C(c1cccs1)N1CCN(C2CCCC2)CC1 | i
Cc1nc2ccc(Nc3ccncc3)cc2s1 | i
CC(C)(C#CCCCCC#CC(C)(C)N1CCCC1)N1CCCC1 | i
COc1ccc(Cc2nc3ccccc3n2CC(=O)N(c2ccccc2)C(C)C)cc1 | i
CN(C)CCCNS(=O)(=O)c1ccc(F)cc1 | 3%
CC(C)C(=O)Nc1cc(Cl)cc(Cl)c1 | i
Cc1ccccc1C(=O)Nc1ccc(N2CCOCC2)c(Cl)c1 | i
Cc1ccc2cccc(SCc3nc(N)nc(Nc4ccccc4)n3)c2n1 | i
CCCC(=O)Nc1nnc(COc2ccc(F)cc2)s1 | i
Cc1cc(C)n(-c2nc3ccccc3[nH]c2=O)n1 | i
COC(=O)CCCC(=O)Nc1ccc(Cl)c(Cl)c1 | ?
O=C(CC1(O)C(=O)Nc2ccc(Br)cc21)c1ccc2c(c1)CCCC2 (stereo not given) | 0%
Cc1cc(C(=O)NCCc2ccc(S(N)(=O)=O)cc2)cs1 | i
COc1cccc(NC(=O)CSc2nc3sc4c(c3c(=O)n2-c2ccccc2)CCC4)c1 | i
O=C(Nc1cc(C(F)(F)F)ccc1N1CCCC1)c1ccccc1Br | i
Cc1ccc(OCCOCCN(C)C)cc1 | i
CCOC(=O)c1c(NC(=O)c2oc3ccc(C)cc3c2C)sc2c1CCC2 | i
